PD-1 reverse act – reversal of PD-1 mediated T-cell inhibition; primary human CD4 T cells, PD-L1 beads, CellTiter-Glo 96 h; activation, % (concentration not given with the values); 29,000 tested, under 10 active;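 active = replicate mean of 50% or more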;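 note: 0% = median vehicle wells and 100% = positive control; 100 nL library stock added to about 50 µL; numbers are from one replicate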
MITF inh – MITF inhibition; TRPM1 promoter luciferase, luminescence, 24 h; inhibition, % (concentration not given with the values); 37,000 tested, 0.28% active;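 active = most replicates at 85% or more, or half of them and the mean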;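 note: human melanocyte line stably carrying TRPM1 promoter luciferase reporter; 0% = vehicle wells and 100% = a positive control; the first replicate is given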
YB-1 expression – YB-1 expression inhibition; U2OS, qRT-PCR YB-1 vs CDIP delta delta Cp, 16 h; hits give high values; zero = DMSO, each unit about twofold; delta delta Cp (YB-1 minus CDIP) (concentration not given with the values); 30,000 tested, 0.37% active;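 active = delta delta Cp rounded down to an integer at or above 3, about 3 SD of DMSO wells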;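 note: higher means less YB-1 transcript or more CDIP transcript relative to DMSO; stock transfer was 100 nL into about 100 µL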
Hedgehog inh – Sonic Hedgehog pathway inhibition. Shh-LIGHT2 Gli-luciferase reporter, 30 h. inhibition, % (no concentration beside the values). 22,000 tested, 2.1% active. AID 2313;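 active = replicate mean of 65% or more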;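 note: pathway switched on by Shh-conditioned medium diluted 1 in 25 in low serum; 100 nL library stock added to about 40 µL; 0% = median of neutral wells and 100% = positive control level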
* hit, by the source's call; . = not tested or not shown.

Each structure is followed by: PD-1 reverse act	MITF inh	YB-1 expression	Hedgehog inh
C[C@H](CO)N1C[C@H](C)[C@H](CN(C)S(=O)(=O)c2cn(C)cn2)Oc2c(NC(=O)Nc3ccc(C(F)(F)F)cc3)cccc2C1=O
→ 1.0	-18	0.14	-2
Cc1ccc(S(=O)(=O)NC(C)C(=O)Nc2ccc(F)c(Cl)c2)cc1 (configuration not stated)
→ 2.4	17	.	.
C[C@H]1CN([C@@H](C)CO)C(=O)c2cccc(NC(=O)C3CCCCC3)c2O[C@H]1CN(C)S(=O)(=O)c1cn(C)cn1
→ 0.1	-4	0.37	26
Cc1c(Br)c([N+](=O)[O-])nn1C(C)C(=O)NCc1ccco1 (configuration not stated)
→ 1.2	-7	.	.
CC(C)NC(=O)Nc1cccc2c1O[C@@H](CN(C)Cc1ccc3c(c1)OCO3)[C@@H](C)CN([C@H](C)CO)C2=O
→ 2.9	6	0.38	-11
C[C@@H]1CN([C@@H](C)CO)C(=O)c2cc(NS(=O)(=O)c3ccc(Cl)cc3)ccc2O[C@@H]1CN(C)C(=O)Nc1ccccc1
→ -0.2	1	0.011	-2
CCCCN1C(=O)/C(=C2/Sc3ccc(OC)cc3N2C)SC1=S
→ 0.4	-6	-0.28	-9
CCCC(=O)Nc1ccc2c(c1)C(=O)N(CCC(=O)O)C2=O
→ 0.9	8	.	.
COc1ccc(CN(C)C[C@H]2Oc3ccc(NC(=O)Cc4cn(C)c5ccccc45)cc3C(=O)N([C@@H](C)CO)C[C@H]2C)cc1
→ -1.7	12	-0.1	25
C[C@@H]1CN([C@@H](C)CO)C(=O)c2cc(NS(=O)(=O)c3cccs3)ccc2O[C@@H]1CN(C)Cc1ccc2c(c1)OCO2
→ .	-8	0.13	.
Cc1ccc(S(=O)(=O)Nc2ccc3c(c2)C(=O)N([C@H](C)CO)C[C@H](C)[C@@H](CN(C)C(=O)c2ccncc2)OCCCC[C@@H](C)O3)cc1
→ 0.7	4	-0.34	-30
C[C@H]1CN([C@@H](C)CO)C(=O)c2cc(NC(=O)Cn3cnnn3)ccc2O[C@@H]1CN(C)Cc1ccc(C(=O)O)cc1
→ 0.8	8	-0.29	1
Cc1noc(C)c1NC(=O)Nc1cccc2c1O[C@H](CN(C)S(=O)(=O)c1cn(C)cn1)[C@H](C)CN([C@H](C)CO)C2=O
→ 1.9	-3	-0.087	15
Cc1noc(C)c1NC(=O)Nc1cccc2c1O[C@H](CN(C)C(=O)Nc1ccc(F)cc1)[C@H](C)CN([C@@H](C)CO)C2=O
→ -0.2	0	0.26	-16
COc1ccc(S(=O)(=O)Nc2ccc3c(c2)C(=O)N([C@@H](C)CO)C[C@@H](C)[C@H](CN(C)Cc2ccc(Cl)c(Cl)c2)O3)cc1
→ 0.7	63	0.029	.
COc1ccc(S(=O)(=O)Nc2ccc3c(c2)C(=O)N([C@H](C)CO)C[C@H](C)[C@H](CN(C)S(C)(=O)=O)OCCCC[C@@H](C)O3)cc1
→ 0.4	-1	-0.41	-15
CC(=O)c1cccc(NC(=O)Cn2cnc3c2c(=O)n(C)c(=O)n3C)c1
→ 1.7	-6	.	.
C[C@@H]1CN([C@@H](C)CO)C(=O)c2cc(NC(=O)NC3CCCCC3)ccc2O[C@H]1CN(C)Cc1ccncc1
→ -0.9	-10	0.34	10
COc1ccc(N(Cc2cc3ccccc3[nH]c2=O)C(=O)c2cccc(OC)c2)cc1
→ 1.9	0	.	.
COc1cc(CCC(O)CC(=O)CCc2ccc(O)cc2)ccc1O (configuration not stated)
→ .	.	0.18	12

Complete entries from above. Values in the order: PD-1 reverse act, MITF inh, YB-1 expression, Hedgehog inh
`Cc1noc(C)c1NC(=O)Nc1cccc2c1O[C@H](CN(C)S(=O)(=O)c1cn(C)cn1)[C@H](C)CN([C@H](C)CO)C2=O` is entered as 1.9, -3, -0.087, 15
`Cc1ccc(S(=O)(=O)Nc2ccc3c(c2)C(=O)N([C@H](C)CO)C[C@H](C)[C@@H](CN(C)C(=O)c2ccncc2)OCCCC[C@@H](C)O3)cc1` is entered as 0.7, 4, -0.34, -30

(list continues)
Each structure is followed by: PD-1 reverse act	MITF inh	YB-1 expression	Hedgehog inh
C[C@H]1CN([C@@H](C)CO)C(=O)c2cc(NS(=O)(=O)c3ccccc3)ccc2O[C@H]1CN(C)Cc1ccc(Cl)c(Cl)c1
→ -8.0	30	-0.55	.
CNC[C@H]1OCCCC[C@@H](C)Oc2ccc(NC(=O)c3ccccc3)cc2C(=O)N([C@H](C)CO)C[C@@H]1C
→ -0.5	-4	-0.17	-32
COC(=O)c1cc(C)sc1NC(=S)NC(C)c1cn(C)nc1C (configuration not stated)
→ -2.2	10	.	.
C[C@H](CO)N1C[C@H](C)[C@H](CN(C)S(C)(=O)=O)Oc2ccc(NC(=O)Cn3cnnn3)cc2C1=O
→ 0.5	12	0.052	-17
COc1cccc([C@H]2C(C#N)=C(N)C(C#N)(C#N)C3=CCC(C)C[C@@H]32)c1 (some centres not stated)
→ -3.1	50	-0.084	-3
C[C@@H]1CN([C@H](C)CO)C(=O)Cc2cc(NC(=O)Nc3ccc4c(c3)OCO4)ccc2O[C@@H]1CN(C)C
→ 2.1	-1	0.22	-55
Nc1nc(SCC(=O)c2ccccc2)nc2sc3c(c12)CCC3
→ 2.3	-116	.	.
C[C@@H]1CN([C@H](C)CO)C(=O)c2cccc(NC(=O)c3ccc(-c4nccs4)cc3)c2O[C@@H]1CN(C)S(=O)(=O)c1cccs1
→ .	-10	-0.66	31
CN(CCOc1ccc(CC2SC(=O)NC2=O)cc1)c1ccccn1 (configuration not stated)
→ .	-20	0.24	-10
C[C@@H]1O[C@@H](O[C@H]2[C@@H](O)[C@@H](C)O[C@@H](O[C@H]3[C@H](O)[C@@H](O)[C@H](O[C@H]4CC[C@@]5(C)C(CC[C@]6(C)C5C=CC5=C7CC(C)(C)CC[C@]7(CO)CC[C@]56C)[C@]4(C)CO)O[C@@H]3CO)[C@@H]2O[C@@H]2O[C@H](CO)[C@@H](O)[C@H](O)[C@H]2O)[C@H](O)[C@H](O)[C@H]1O (some centres not stated)
→ -1.5	4	-0.014	32

In the list so far, 4 have a thiophene ring, fused or not:
Each structure is followed by: PD-1 reverse act	MITF inh	YB-1 expression	Hedgehog inh
C[C@@H]1CN([C@@H](C)CO)C(=O)c2cc(NS(=O)(=O)c3cccs3)ccc2O[C@@H]1CN(C)Cc1ccc2c(c1)OCO2
→ .	-8	0.13	.
COC(=O)c1cc(C)sc1NC(=S)NC(C)c1cn(C)nc1C (configuration not stated)
→ -2.2	10	.	.
Nc1nc(SCC(=O)c2ccccc2)nc2sc3c(c12)CCC3
→ 2.3	-116	.	.
C[C@@H]1CN([C@H](C)CO)C(=O)c2cccc(NC(=O)c3ccc(-c4nccs4)cc3)c2O[C@@H]1CN(C)S(=O)(=O)c1cccs1
→ .	-10	-0.66	31

New compounds follow:
Each structure is followed by: PD-1 reverse act	MITF inh	YB-1 expression	Hedgehog inh
C[C@H]1CN([C@@H](C)CO)C(=O)c2cc(NS(=O)(=O)c3cn(C)cn3)ccc2O[C@@H]1CN(C)S(=O)(=O)c1ccc(F)cc1
→ 2.5	6	-0.57	.
Cc1ccc(NC(=O)CSc2nc3ccc([N+](=O)[O-])cc3s2)cc1Cl
→ -5.9	38	.	.
C[C@@H]1CN([C@H](C)CO)C(=O)Cc2cc(NC(=O)Nc3ccc4c(c3)OCO4)ccc2O[C@@H]1CN(C)Cc1ccc(Oc2ccccc2)cc1
→ 0.6	20	-0.16	32
COc1ccc(S(=O)(=O)N(C)C[C@@H]2Oc3ccc(NS(=O)(=O)c4cccs4)cc3C(=O)N([C@@H](C)CO)C[C@@H]2C)cc1
→ -1.8	-6	0.5	29
C[C@H]1CN([C@@H](C)CO)C(=O)c2cccc(NS(=O)(=O)c3ccc(Cl)cc3)c2O[C@@H]1CN(C)C(=O)Nc1ccc(F)cc1
→ -1.1	9	-0.041	-19
CCn1c(SCC(=O)Nc2cc(Cl)c(Cl)cc2Cl)nnc1-c1cccc(C)c1
→ 1.2	1	.	.
C[C@@H]1CN([C@@H](C)CO)C(=O)c2cc(NC(=O)Cn3cnnn3)ccc2O[C@@H]1CN(C)Cc1ccc(C(F)(F)F)cc1
→ 2.5	0	-0.031	-10
Cc1ccc(S(=O)(=O)N(C)CC(=O)Nc2cccnc2)cc1
→ 0.3	-27	.	.
C[C@H]1CN([C@@H](C)CO)C(=O)c2cccc(NC(=O)Nc3ccc4c(c3)OCO4)c2O[C@@H]1CN(C)Cc1ccc2c(c1)OCO2
→ .	-17	0.02	-32
COC(=O)c1ccccc1NC(=O)CSc1nnnn1-c1ccc(C)cc1C
→ 1.2	17	.	.
O=C(Cn1ccc([N+](=O)[O-])n1)NCc1cccnc1
→ 1.7	-14	.	.
C[C@@H]1CN([C@H](C)CO)C(=O)Cc2cc(NC(=O)Nc3ccc(C(F)(F)F)cc3)ccc2O[C@@H]1CN(C)C(=O)NC1CCCCC1
→ -1.9	23	-0.29	-16
Cc1cc2ncn(CC(O)COc3c(C)cccc3C)c2cc1C (configuration not stated)
→ -2.4	-6	.	.
C[C@@H]1CCCCO[C@H](CN(C)C(=O)Nc2ccc(F)cc2)[C@@H](C)CN([C@H](C)CO)C(=O)c2cc(NC(=O)c3ccccc3)ccc2O1
→ .	16	-0.28	-24
C[C@H](CO)N1C[C@H](C)[C@@H](CN(C)S(=O)(=O)c2ccccc2)Oc2c(cccc2N(C)C)C1=O
→ 1.9	9	0.15	-2
CSC(=NS(=O)(=O)c1ccccc1)SC
→ -0.2	16	0.54	-10
Cc1ccc(OCC(=O)NC(=S)Nc2cc(-c3nc4ncccc4o3)ccc2C)cc1
→ 0.8	-18	.	.
C[C@@H]1CCCCO[C@@H](CN(C)CC2CCCCC2)[C@@H](C)CN([C@H](C)CO)C(=O)c2cc(NS(=O)(=O)c3ccccc3)ccc2O1
→ .	-7	-0.33	-21
COc1ccc(NC(=O)N(C)C[C@@H]2Oc3ccc(NC(=O)Nc4ccc(C(F)(F)F)cc4)cc3CC(=O)N([C@H](C)CO)C[C@H]2C)cc1
→ .	-6	-0.063	-28
COc1ccc(NC(=O)C23CC4CC(C2)CC(C(=O)Nc2ccc(OC)cc2OC)(C4)C3)c(OC)c1
→ -3.9	7	.	.
C[C@@H]1CN([C@@H](C)CO)C(=O)Cc2cc(NC(=O)CCN3CCOCC3)ccc2O[C@@H]1CN(C)S(C)(=O)=O
→ 0.3	-4	-0.041	-16
CCNc1nc(SCC(=O)NC(=O)NCc2ccccc2)nc2sc3c(c12)CCN(C)C3
→ 1.4	-12	-0.34	-1
Cc1ccccc1NS(=O)(=O)c1ccc(NC(=O)c2nc3ncccn3n2)cc1
→ 2.0	11	.	.
O=C(CSc1nc(-c2ccccc2)cc(C(F)(F)F)n1)c1ccc(Br)cc1
→ -0.4	3	.	.
Cc1ccc(CN2C(=O)C(O)(CC(=O)c3c(C)coc3C)c3cc(Cl)ccc32)cc1 (configuration not stated)
→ 0.8	43	.	.
O=C(CCN1C(=O)C2C3c4ccccc4C(c4ccccc43)C2C1=O)Oc1cccc2cccnc12 (configuration not stated)
→ -16	0	.	.
C[C@H](CO)N1C[C@H](C)[C@H](CN(C)S(=O)(=O)c2cn(C)cn2)Oc2ccc(NC(=O)Nc3ccc(F)cc3)cc2CC1=O
→ 4.8	-14	-0.092	-47
C[C@@H]1CN([C@H](C)CO)C(=O)Cc2cc(NS(=O)(=O)c3ccc(F)cc3)ccc2O[C@@H]1CN(C)Cc1ccc(C(=O)O)cc1
→ 2.9	22	-0.0098	-4
C[C@@H]1CN([C@@H](C)CO)C(=O)c2cc(NC(=O)CCCN(C)C)ccc2O[C@@H]1CN(C)Cc1ccc2c(c1)OCO2
→ 0.6	9	0.11	-5
COc1ccc(NC(=O)Nc2ccc3c(c2)C(=O)N([C@@H](C)CO)C[C@@H](C)[C@H](CN(C)CC2CCCCC2)O3)cc1
→ .	-4	-0.025	.
CCC(=O)Nc1ccc2c(c1)N(CC)C(C)(C)CC2C (configuration not stated)
→ 1.1	13	0.013	29
C[C@@H]1CN([C@@H](C)CO)C(=O)c2cccc(NC(=O)Nc3ccc4c(c3)OCO4)c2O[C@@H]1CN(C)Cc1ccncc1
→ 2.3	-9	-0.32	-4
Cc1ccccc1OCC(=O)NCC(=O)O
→ 1.8	-30	.	.
Cc1ccc(S(=O)(=O)Nc2ccc3c(c2)CC(=O)N([C@@H](C)CO)C[C@H](C)[C@@H](CN(C)S(=O)(=O)c2ccc(C)cc2)O3)cc1
→ 0.6	8	-0.12	-14
C[C@H](CO)N1C[C@H](C)[C@H](CN(C)S(=O)(=O)c2cccs2)Oc2ccc(NC(=O)Nc3ccc(F)cc3)cc2C1=O
→ -1.4	-69	-0.097	-17
COc1ccc(C(CC(=O)O)C(=O)O)cc1OC (configuration not stated)
→ -0.2	5	.	.
CCCC1C2C(=O)N(c3ccccc3)C(=O)C2ON1c1ccc(Cl)c(Cl)c1 (configuration not stated)
→ 0.6	31	-0.016	-4
C[C@@H]1CN([C@H](C)CO)C(=O)Cc2cc(NS(=O)(=O)c3ccccc3)ccc2O[C@H]1CN(C)S(=O)(=O)c1ccc(F)cc1
→ 0.1	-3	0.22	-22
C[C@@H]1CCCCO[C@H](CN(C)C(=O)Nc2ccc(C(F)(F)F)cc2)[C@@H](C)CN([C@H](C)CO)C(=O)c2cc(NC(=O)Cc3ccccc3)ccc2O1
→ .	-9	-0.28	23

Compound activity (PubChem BioAssay)

An excerpt, so the mix of outcomes need not match the whole.
